LANA-nucl inh = LANA-nucleosome interaction inhibition; z-score (concentration not given with the values); actives 0.3% (n = 51,000); FITC-LANA1-23 / chicken nucleosome fluorescence polarization; active compounds read low;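 active = both repeat wells score below -2 in polarization z-score versus plate sample wells, excluding overly bright wells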;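 note: 100 nL library stock added to about 30 µL; numbers are from one replicate; some results filed as inactive read as strong as hits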
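System – purified chicken nucleosomes with FITC-labelled LANA N-terminal peptide (1-23) · Amount – 240 nM purified chicken nucleosomes (480 nM peptide binding sites), final · Also added – 50 nM FITC-LANA1-23 probe · Medium – TEN-BT buffer, pH 7.5 · Incubation – compound with peptide–nucleosome mix 10–45 min at room temperature · Detection – fluorescence polarization, ex 480 nm, em 535 nm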
Ab BasE inh = BasE siderophore biosynthesis inhibition | inhibition, % (concentration not given with the values) | purified BasE, fluorescence polarization binding displacement | actives 0.1% (n = 84,000);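 active = both replicates above 25% with normal brightness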;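 note: 0% = negative plate control signal and 100% = positive plate control signal; stock transfer was 100 nL into about 30 µL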
Active calls of the source: *; . = not tested or not shown; & = joins results of further samples. An excerpt; count on the stated rates, not on these rows.

SMILES | LANA-nucl inh | Ab BasE inh
O=C(NCc1ccc(Cl)cc1)c1sc2ccccc2c1Cl | . | 2.1
Cc1cccc(NC(=O)CNc2nnnn2-c2ccccc2)c1C | . | 3.4
CCS(=O)(=O)N1CCCC(c2nc3c(nnn3Cc3ccc(C)cc3)c(=O)[nH]2)C1 (configuration not stated) | -1.1 | -0.4
CN1/C(=C\C(=O)CN2C(=O)NC3(CCc4ccccc43)C2=O)C(C)(C)c2ccccc21 (configuration not stated) | . | -3.8
O=C(Cn1nc(-c2ccc(Cl)cc2)c2ccccc2c1=O)NCCN1CCOCC1 | -0.041 | 3.0
COc1ccc(Cl)cc1NC(=O)COC(=O)C12CC3CC(CC(O)(C3)C1)C2 | . | 0.1
O=C(CSc1nncs1)N1CCN(C(=O)CSc2nncs2)CC1 | . | 0.8
CCN1C(=O)N(COC(C)=O)C2C1N(CC)C(=O)N2COC(C)=O (configuration not stated) | -0.75 | 1.1
N#Cc1ccccc1Cn1c(=O)n(-c2ccc(CC(=O)NCc3ccco3)cc2)c(=O)c2sccc21 | -1.3 | -0.9
Cc1ccc(C)n1NC(=O)c1ccc(O)cc1 | -1 | 1.4
Cc1ccc(SC(C)C(=O)Nc2ccc(CC#N)cc2)cc1 (configuration not stated) | -0.12 | -1.4
CC(C)(C)n1nnnc1CN1CCC(NC(=O)Nc2ccc(F)cc2)CC1 | 2.3 | -4.7
O=C(CSc1nc2c(c(C(F)(F)F)n1)CCCC2)Nc1ccccc1 | 0.27 | -0.9
Cc1cc(=O)oc2c1ccc1oc(/C(=N/O)c3ccccc3)c(C)c12 | . | 0.1
O=C(CNC(=O)c1ccccc1)N=Nc1c(O)[nH]c2ccccc12 | 0.38 | 1.6
C=CCc1ccc(OCCCCCN2CCOCC2)c(OC)c1 | -0.26 | 0.8
Cc1nc2cccnc2n1CCNC(=O)Nc1cccc2ccccc12 | 1.9 | -5.0
Cc1ccc(C(c2nnnn2C2CCCC2)N(Cc2cccnc2)CC2CCCO2)cc1 (configuration not stated) | 0.088 | -2.4
Cc1ccccc1-n1ncc2c(=O)n(CCN3CCCCC3)cnc21 | -0.5 | -0.4
CC1CC(C)CN(S(=O)(=O)c2ccc(C(=O)N3CCOCC3)cc2)C1 (configuration not stated) | 0.18 | -1.1
N=C1/C(=C2\Nc3ccccc3S2)CC(=O)N1Cc1ccco1 | . | -5.6
CN(c1ccccc1C(=O)NCC1CCCO1)S(C)(=O)=O (configuration not stated) | -0.2 | 2.4
Cc1cc(=O)[nH]c(NNC(=S)Nc2ccc(Cl)c(F)c2)n1 | . | -1.5
CCCC[C@@H](C=O)NC(=O)[C@H](CC(C)C)NC(=O)OCc1ccccc1 | -0.081 | -0.7

Rewritten field by field: entries from further up.
CC1CC(C)CN(S(=O)(=O)c2ccc(C(=O)N3CCOCC3)cc2)C1 (configuration not stated)
  LANA-nucl inh = 0.18
  Ab BasE inh = -1.1
N=C1/C(=C2\Nc3ccccc3S2)CC(=O)N1Cc1ccco1
  LANA-nucl inh = .
  Ab BasE inh = -5.6
CN(c1ccccc1C(=O)NCC1CCCO1)S(C)(=O)=O (configuration not stated)
  LANA-nucl inh = -0.2
  Ab BasE inh = 2.4
Cc1cc(=O)[nH]c(NNC(=S)Nc2ccc(Cl)c(F)c2)n1
  LANA-nucl inh = .
  Ab BasE inh = -1.5

The listing continues:
SMILES | LANA-nucl inh | Ab BasE inh
CCOC(=O)N1CCN(C(C)=C2C(=O)c3ccccc3C2=O)CC1 | -0.9 | 11
Cc1cc(/C=N/N2CCN(C)CC2)c(C)n1-c1ccc(Cl)cc1 | . | 0.7
Cc1ccc2c(c1)CCCN2C(=O)c1cc(C(F)(F)F)cc(C(F)(F)F)c1 | . | 2.8
N#Cc1cccc2cccc(Sc3ccccc3)c12 | . | 1.1
O=S(=O)(Cc1ccc(Cl)cc1)N1CCc2ccccc21 | -0.13 | 1.6
CNC(=O)NC(=O)C(C)Sc1nc2ccccc2n1C1CCCCC1 (configuration not stated) | . | -1.3
Cc1noc2nc(-c3ccc(Cl)cc3)cc(C(=O)O)c12 | . | 3.5
O=C(C1=C(N2CCCCC2)c2ccccc2S(=O)(=O)N1)c1ccccc1 | 0.067 | 2.8
COc1ccc(S(=O)(=O)N2CCc3ccccc32)cc1C(=O)NCC(c1ccco1)N1CCCC1 (configuration not stated) | . | 0.5
O=C(O)COc1ccc(CO)cc1Cl | -0.28 | 1.3
COC(=O)C1=C(C)N(c2ccc(N(C)C)cc2)C(C)=C(C(=O)OC)C1c1ccccc1 | -1.2 | -0.1
O=C(NCc1cccs1)/C(=C/c1cccs1)c1ccccc1 | -0.47 | .
O=C(CC1Sc2ccccc2NC1=O)OCc1nnc(-c2ccccc2)o1 (configuration not stated) | . | -1.0
CC(C)S(=O)(=O)c1cscc1NC(=O)Nc1ccccc1 | . | -0.3
CSc1nc(C)cc(Oc2ccccc2)n1 | -0.45 | 3.6
CCCCNC(=O)c1ccc(N2CCCC2)c(NS(=O)(=O)c2ccc(C)cc2)c1 | -1.5 | 3.1
Cc1nn(C)c(=O)c2noc(/C=C/c3ccsc3)c12 | 0.52 | 3.7
COc1cccc(OCc2nnc(SCC(=O)O)o2)c1 | 0.24 | -0.4
CCNC(=S)N1CCN(CC(=O)Nc2cc(Cl)cc(Cl)c2)CC1 | 0.46 | 1.7
COc1ccc(-c2noc(CNC(=O)/C=C/c3ccc(OC)c(OC)c3)n2)cc1 | 2.4 | -9.4
CCCCN=C1CCCc2ccccc2N1 | 0.59 | 0.7
O=C(c1cnn2cc(Br)cnc12)N1CCCc2ccccc21 | 1.9 | -2.5
CCCn1c(C)c(Br)c(=O)n(C(C)(C)C)c1=O | . | -0.1
CC(C)=CCC(C)(C)C1OCCN1C(=O)Nc1ccccc1 (configuration not stated) | 1.4 | -3.2

Arranged by heavy-atom count (rising): part of the list above
SMILES | LANA-nucl inh | Ab BasE inh
CCCCN=C1CCCc2ccccc2N1 | 0.59 | 0.7
CCCn1c(C)c(Br)c(=O)n(C(C)(C)C)c1=O | . | -0.1
COc1cccc(OCc2nnc(SCC(=O)O)o2)c1 | 0.24 | -0.4
CC(C)S(=O)(=O)c1cscc1NC(=O)Nc1ccccc1 | . | -0.3
CC(C)=CCC(C)(C)C1OCCN1C(=O)Nc1ccccc1 (configuration not stated) | 1.4 | -3.2
CCNC(=S)N1CCN(CC(=O)Nc2cc(Cl)cc(Cl)c2)CC1 | 0.46 | 1.7
COc1ccc(-c2noc(CNC(=O)/C=C/c3ccc(OC)c(OC)c3)n2)cc1 | 2.4 | -9.4

(cont.)
SMILES | LANA-nucl inh | Ab BasE inh
Nc1nc(=O)c2cccnc2s1 | . | 2.2
O=C(N/N=C/c1ccccc1Cl)c1ccc(=O)[nH]n1 | -0.79 | 1.3
O=C(Nc1ccc2[nH]c(=O)[nH]c2c1)NC1CCCCC1 | . | 2.6
COc1ccc(-c2nnc(SCCCn3c(=O)[nH]c4ccccc43)o2)cc1 | . | 0.5
O=C(NCCCNC1CCCCC1)c1cc2ccccc2[nH]1 | -0.042 | -6.3
CCCc1cc(=O)oc2cc(C)c(CN3CCCC3)c(O)c12 | -0.85 | 4.2
CC(C)NC(=O)C(C)N1CCN(S(=O)(=O)c2ccc3ccccc3c2)CC1 (configuration not stated) | . | -1.2
Cc1ccc(OCCSc2nc(O)cc(=O)n2C2CCCC2)cc1 | . | 0.2
CCOC(=O)c1c(C)nn(-c2ccc(N3C(=O)CCC3=O)cc2)c1C | -0.86 | 0.3
O=C(NCc1ccccc1)c1ccc2c(=O)n3nc(Nc4ccccc4)sc3nc2c1 | 0.25 | 4.3
CCN(CC)C(=O)Oc1ccc2c(C)c(-c3ccc(OC)cc3)c(=O)oc2c1 | 1.7 | -1.2
CCN1C(=O)c2cccc3c(S(=O)(=O)N4CCc5ccccc54)ccc1c23 | -0.7 | 1.8
COC(=O)C1=C(C)NC2=C(C(=O)c3ccccc32)C1c1ccc(O)c(OC)c1 (configuration not stated) | -0.28 | 0.2
O=C(Sc1ccc(Cl)cc1Cl)c1csc(-c2ccc3nonc3c2)n1 | . | 0.6
CC(=O)N1CCc2cc(C(O)CN3CCN(c4cc(Cl)ccc4C)CC3)ccc21 (configuration not stated) | 0.29 | -1.0
Cc1ccc(CN(C)CC(=O)Nc2ccccc2Cc2ccccc2)o1 | . | 0.0
CC(C(=O)NC1CCCC1)N(C)CCOc1ccc(Cl)cc1 (configuration not stated) | . | -1.5
Cc1ccsc1CNCCCO | 0.5 | 0.2
CCN1C(=O)/C(=C2\C=Cc3ccccc3N2CC)SC1=S | -0.75 | 0.7
Cc1cc(/C=N/n2cnc3c(cnn3-c3ccccc3)c2=O)c(C)n1CC(C)C | . | 0.8
CCCCc1cc(C)c2[nH]cc(C(=O)O)c(=O)c2c1 | . | 2.4
CCCCNc1nnc(SC(C)C(=O)NC(=O)NC)s1 (configuration not stated) | . | 0.1
Cn1c(SCc2ccccc2)nnc1C1CCCN(CC(=O)Nc2ccc3c(c2)OCO3)C1 (configuration not stated) | 0.29 | 1.1
Cc1noc(C)c1C(=O)N(CC(=O)NC1CCCC1)Cc1ccccc1F | 2.1 | -2.6
CC(OC(=O)c1ccccc1NS(=O)(=O)c1ccc2[nH]c(=O)[nH]c2c1)C(=O)N1CCCCC1 (configuration not stated) | . | -0.5
C#CC1(OC(C)=O)C(C)CN(C)CC1C (configuration not stated) | -1.1 | -0.3
CC(C)NC(C)(C)C#N | . | 3.7
Cc1scc(C(=O)NCC2CCCCC2)c1C | 0.32 | 0.4
COC(=O)[C@@H](Cc1c[nH]c2ccccc12)NC(=O)c1ccc2nc[nH]c2c1 | . | -0.8
CCOC(=O)NC1c2ccccc2Oc2ccc(OC)cc21 (configuration not stated) | -1 | 2.5
Oc1ccccc1-c1nc(N2CCCCCC2)c2ccccc2n1 | -0.37 | 1.0
N#Cc1c(NC(=O)CCSc2nnc3ccccn23)sc2c1CCCC2 | . | 0.1
CCC(SC1=N/C(=C/c2ccccc2)C(=O)N1c1ccccc1)C(=O)Nc1cc(C)on1 (configuration not stated) | -0.11 | 0.1
O=C(Nc1cccnc1)Nc1c[nH]c2c(Cl)cccc2c1=O | -0.29 | 1.2
Cc1c(OCc2ccc(Cl)cc2Cl)ccc2c1OC(C)(C)CC2=O | . | -0.1
CCC(=O)/C(C)=C/c1ccco1 | 0.67 | -3.2
CCOc1ccc(-c2cccc(NS(=O)(=O)N(C)C)c2)nn1 | -0.19 | -1.4
COc1cc(-c2nn(CCC(N)=O)cc2/C=C(\C#N)C(=O)O)ccc1OC(F)F | . | 1.4
Cc1ccccc1-c1nnn(CC(=O)N2N=C(c3ccc(Cl)cc3)CC2c2ccco2)n1 (configuration not stated) | . | 1.1
C=CCc1ccccc1OCC(O)CNC(C)C (configuration not stated) | 0.38&-0.21 | -1.5
Cc1cc(CN2CCS(=O)(=O)CC2)c(C(F)(F)F)o1 | -0.88 | .
S=C(NCCN1CCOCC1)N/N=C/c1ccccc1 | . | -1.0
COc1ccc(S(=O)(=O)N2CCC(NC(=O)NCCC(C)C)CC2)cc1 | 0.013 | -0.9
c1ccc(Cn2nnnc2C(c2cccs2)N(Cc2cccnc2)Cc2ccco2)cc1 (configuration not stated) | -0.35 | 4.2
O=C(Cn1cncn1)N/N=C/c1ccccc1OC(=O)/C=C1\SC(=O)NC1=O | . | 0.7
O=C(N/N=C/c1c(Sc2nnnn2-c2ccccc2)nc2ccccn2c1=O)c1ccccc1 | . | 1.8
O=C1CC(c2ccc(O)cc2)Oc2cc(O)cc(O)c21 (configuration not stated) | 0.061 | -1.5
Cc1cc(C)c(S(=O)(=O)Nc2ccc3c(c2)OCO3)c(C)c1 | -0.51 | -1.5
CNC(=O)c1c(O)c2cc(OC)c(OC)cc2[nH]c1=O | -0.079 | 1.8
CCOc1ccc(NC(=S)NC(c2ccccc2)c2ccccc2)cc1 | . | 1.1
O=C(O)COc1ccccc1/C=C1/SC(=S)N(NC(=O)c2ccco2)C1=O | -0.69 | 4.7
CC(=O)Nc1cccc(C(=O)OC(C)C(=O)NC2(C#N)CCCCC2)c1 (configuration not stated) | . | 1.8
O=C(Nc1cccc(Oc2ccc3c(c2)C(=O)NC3=O)c1)c1ccc(Br)o1 | -1.2 | -0.7
CC(C)C1NC(=O)N(C2CCCCC2)C1=O (configuration not stated) | 0.36 | 0.6
Cc1nn(C)c2sc(C(=O)N(Cc3ccccn3)Cc3ccccn3)cc12 | . | 1.1
CCSC1=N/C(=C\c2ccco2)C(=O)N1c1ccc(OC)c(Cl)c1 | . | -0.2
O=C(Nc1nc2ccccc2n1Cc1ccc(Cl)cc1)C1CCCCC1 | . | 1.7
Cc1cc(C(=O)NN2CC(O)=C(c3nc4ccccc4n3C)C2=N)c(C)o1 | . | 2.2
O=C(OCc1ccccc1Cl)c1cc(=O)[nH]c2ccccc12 | -1 | 1.7
COc1ccc(Cn2c(CO)cnc2SCC(=O)N(C(C)C)C(C)C)cc1 | -0.16 | 2.7
Remaining list, next part.
SMILES | LANA-nucl inh | Ab BasE inh
COc1ccc2nc(NC(C)=O)sc2c1 | . | -2.7
Clc1ccc(CCNc2ncnc3c2oc2ccccc23)cc1 | . | -1.1
C#Cc1cccc(NC(C)=O)c1 | -0.32 | 0.7
Cc1nn(CC(=O)c2cc(C)n(CC(F)(F)F)c2C)c(=O)c(C#N)c1C | . | 0.6
CCOC(=O)c1nn(-c2ccc(C)cc2)c(=O)cc1OCC(=O)N1CCN(c2ccccc2)CC1 | 2 | 1.7
c1ccc2oc(-c3ccc(NCc4ccc5c(c4)OCO5)cc3)nc2c1 | -0.95 | 0.1
